Vaccinia mCherry: qHTS for Stage-Specific Inhibitors of Vaccinia Orthopoxvirus: mCherry Reporter Primary qHTS; Vaccinia virus mCherry reporter infection, fluorescence; about a quarter of the inactives have no number; Potency, µM (titrated, usually from 36.5 µM), for inactives: at the top dose activity change, negative = inhibition, actives largely listed as inhibitors; 310,000 compounds, 0.63% hits; AID 720579, 2013; active = well fitted inhibition curve with a large enough effect; inconclusive = small, poorly fitted or top-dose-only effect; inactive = no such curve, though single readings can be large or run the other way; tested in A549 cells; note: nearly all actives have a fitted effect of over 35% in size; inactives centre near -10
Vaccinia Venus: qHTS for Stage-Specific Inhibitors of Vaccinia Orthopoxvirus: Venus Reporter Primary qHTS. 330,000 compounds, 0.46% hits. Potency, µM (top dose mostly 36.5 µM), without a hit: at the highest dose activity change, negative = inhibition, actives largely listed as inhibitors. AID 720580, 2013. Vaccinia virus Venus reporter expression, fluorescence; active means well fitted inhibition curve with a large enough effect; inconclusive means small, poorly fitted or top-dose-only effect; inactive means no such curve, though single readings can be large or run the other way; tested in A549 cells; note: nearly all actives have a fitted effect of over 30% in size; inactives centre near -10
The depositor's hits bear a star; i = inactive; ? = inconclusive; · = no result given; & = joins results of further samples; [ ] = another dose, or the depositor's remark. % is set by controls: 0 for no effect and ±100 for the full control effect; potency is the fitted concentration of half-maximal effect.

SMILES	Vaccinia mCherry	Vaccinia Venus
CCn1cnc2c(oc3ccccc32)c1=O	i	-7%
N#CCCN(C(=O)COC(=O)c1cccc(S(=O)(=O)N2CCCCCC2)c1)c1ccc(F)cc1	i	-10%
COc1cc2c(cc1OC)CN(S(=O)(=O)c1ccc(Cl)nc1)CC2	-17%	?
CCN(CC)CCN(C(=O)Cn1nnc(-c2ccc(C)o2)n1)C(C(=O)NC1CCCC1)c1ccc(F)cc1 (centres undefined)	-31%	-4%
CN(CCOc1ccc(Cl)cc1)C(=O)Cc1ccc(S(=O)(=O)N2CCOCC2)s1	-17%	-4%
CCOC(=O)C1CCCN(C(=O)C2CCCN(S(=O)(=O)c3ccc4c(c3)oc(=O)n4C)C2)C1 (centres undefined)	i	-1%
O=C(Nc1ccc(C(=O)N2CCOCC2)cc1)c1ccccc1	-3%	2%
CC(=O)n1cc([C@@H]2C=C(C(=O)O)O[C@H](OCc3ccc(CO)cc3)C2)c2ccccc21	i	1%
C=CCOC(=O)c1ccc(-n2cnc(C)n2)nc1	-4%	-5%
CC(O)(COc1ccccc1)c1ccc2c(c1)CN(Cc1cccc3cccnc13)CCO2 (centres undefined)	i	-3%
CCOC(=O)c1cnn2c(C(F)(F)F)cc(-c3cn(C)nc3C)nc12	·	-3%
CN1CCN(c2nc3ccccc3nc2NS(=O)(=O)c2ccc(Br)cc2)CC1	i	-12%
COc1ccc(C(=O)Nc2cccc(S(=O)(=O)N(C)C)c2)cc1S(=O)(=O)N1CCOCC1	-5%	-11%
Cc1ccc2[nH]c3c(=O)n(CCN4CCOCC4)cnc3c2c1	-19%	-10%
COCCN(C(=O)COC(=O)/C=C/c1ccc(SC)cc1)c1c(N)n(Cc2ccccc2)c(=O)[nH]c1=O	-17%	-7%
CCOC(=O)CC(NC(=O)C(CC)c1ccccc1)c1ccccc1Cl (centres undefined)	-3%	-5%
CCS(=O)(=O)N1CCC(C(=O)Nc2cc(Cl)ccc2O)CC1	-14%	-10%
COc1cc(C=C(C(C)=O)C(C)=O)ccc1O	-14%	-4%
O=C(Cn1c(-c2cccs2)cc2cc(F)ccc21)N1CCN(c2ccccc2)CC1	-13%	-17%
CCOC(=O)CNC(=O)c1cc(OC)cc(OC)c1	-19%	-14%
CN(C)c1ccc(NC(=O)Cn2c(SCc3ccc(F)cc3)nc3ccncc32)cc1	-9%	-5%
CC(=O)NCCc1ccc(C(=O)COC(=O)c2cc(C)oc2C)cc1	-7%	-10%
Cn1c(=O)c(C#N)c(-c2ccccc2)n2cnnc12	i	-6%
O=C(NCCc1ccccc1)c1cccnc1	-4%	-1%
CC1CN(C(=O)COC(=O)c2ccc(F)cc2Cl)CC(C)O1 (centres undefined)	-8%	-7%

Seven neighbouring compounds from above, quoted:
SMILES	Vaccinia mCherry	Vaccinia Venus
CCn1cnc2c(oc3ccccc32)c1=O	i	-7%
N#CCCN(C(=O)COC(=O)c1cccc(S(=O)(=O)N2CCCCCC2)c1)c1ccc(F)cc1	i	-10%
COc1cc2c(cc1OC)CN(S(=O)(=O)c1ccc(Cl)nc1)CC2	-17%	?
CCN(CC)CCN(C(=O)Cn1nnc(-c2ccc(C)o2)n1)C(C(=O)NC1CCCC1)c1ccc(F)cc1 (centres undefined)	-31%	-4%
CN(CCOc1ccc(Cl)cc1)C(=O)Cc1ccc(S(=O)(=O)N2CCOCC2)s1	-17%	-4%
CCOC(=O)C1CCCN(C(=O)C2CCCN(S(=O)(=O)c3ccc4c(c3)oc(=O)n4C)C2)C1 (centres undefined)	i	-1%
O=C(Nc1ccc(C(=O)N2CCOCC2)cc1)c1ccccc1	-3%	2%

Next structures follow:
SMILES	Vaccinia mCherry	Vaccinia Venus
O=C(CSc1nc(O)cc(=O)n1-c1ccccc1)c1ccc(Br)cc1	-8%	0%
O=C(c1ccc(-c2ccccc2)cc1)N1CCC(C(=O)N2CCCC2)CC1	?	-26%
COc1cccc(C(=O)Nc2cccc(OCc3cc(=O)n4cccc(C)c4n3)c2)c1	-13%	?
COc1cc(N2C(=O)CSC23C(=O)Nc2ccccc23)cc(OC)c1OC (centres undefined)	-8%	-6%
COc1ccc(C)cc1S(=O)(=O)N(C)CC(=O)Nc1ccc2c(c1)OCCO2	-16%	-16%
Cc1ccc(NC(=O)c2ncc(Cl)c(Cl)c2Cl)cc1C	-1%	2%
CC/C(=N/NC(=O)c1ccc(Br)o1)c1ccc(Cl)cc1	i	-4%
CCOC(=O)c1ccc(N=c2ssnc2Cl)cc1	-3%	2%
O=S(=O)(NCc1nc2cccnc2n1Cc1ccc(F)cc1)c1ccc(Cl)s1	-21%	-24%
CC(C)Nc1ccc(C(CC(N)=O)NC(=O)Cc2cccc3ccccc23)cc1[N+](=O)[O-] (centres undefined)	-5%	-11%
CNc1snc(C)c1C(=O)OCC(=O)NCc1ccccc1OC	i	-11%
CCc1ccc(CNc2ccc3c(c2)ncn3C(C)(C)C)cc1	-19%	-18%
CCOc1ccc(OCCC(=O)OCC(=O)NC2CC2)cc1	-27%	-4%
Cc1ccc(C(C)C)cc1OCC(=O)N1CCN(C(=O)c2ccco2)CC1	i	-12%
CC(C)CN(C(=O)C1CC1)C1CCS(=O)(=O)C1 (centres undefined)	-18%	-5%
Cc1cccnc1-n1c(CCN2C(=O)c3ccccc3C2=O)nc2ccccc2c1=O	-5%	7%
COC(=O)C1C(O)CC[C@H]2CN3CCc4c([nH]c5ccccc45)C3C[C@H]12 (some centres undefined)	-13%	-2%
Cc1cc(C)cc(NC(=O)CSc2nnnn2-c2cccnc2)c1	-13%	0%
Cc1cccc(Nc2c(-c3ccc(N4CCOCC4)cc3)nc3ncccn23)c1	i	-8%
NCc1nc2cccnc2n1Cc1ccccc1Cl	-2%	-2%
COc1ccccc1NC(=O)N1CCN(C(=O)Nc2ccccc2OC)CC1	-14%	-6%
CCOC(=O)CNC(=O)C1(/C=C/c2ccccc2)CC(=O)N1c1ccc(OC)cc1 (centres undefined)	-7%	-16%
COC(=O)c1cnn(-c2ccc(C(=O)Nc3cc(OC)c(OC)c(OC)c3)cc2)c1N	6%	5%
CCOC(=O)c1c(NC(=O)Cn2nnc(-c3ccccc3Cl)n2)sc(C)c1C	·	-6%
CCOc1ccc(NC(=O)CN2CCN(CC(=O)Nc3ccc(OC)cc3)CC2)cc1	-3%	-10%&-14%
Continuation:
SMILES	Vaccinia mCherry	Vaccinia Venus
COc1ccc(N2CCN(CCCNC(=O)c3sc4ncccc4c3-n3cccc3)CC2)cc1	-23%	-22%
CC(C)(C)OC(=O)CNC(=O)c1[nH]cnc1C(=O)N[C@@H](CCCCN)C(=O)OC(C)(C)C	-4%	-10%
O=C(COC(=O)CCCNC(=O)c1ccc(Cl)cc1)Nc1cc(Cl)c(Cl)cc1Cl	-7%	4%
N#Cc1c(-c2ccncc2)c2c([nH]c1=S)CCCC2	·	-6%
COc1cc(/C=C/c2nc3ccccc3c(=O)n2-c2cccc(O)c2)ccc1O	?	177%[activator]
CCN1CCN(C(c2ccccc2Cl)c2sc3nc(-c4ccco4)nn3c2O)CC1 (centres undefined)	-11%	-11%
Cc1ccc(C(C)C)c(OCc2nc(-c3nonc3N)no2)c1	i	?
CC1(C(=O)NC2CCCC2)CCC(=O)N1CCc1c[nH]c2ccccc12 (centres undefined)	28%	5%
COc1cc(C2CC(=O)Oc3c2c(=O)[nH]c2ccccc32)cc(OC)c1OC (centres undefined)	-21%	-20%
CN(C)c1ccc(-c2cncnc2NCc2cccs2)cc1	1%	0%
Cc1cc(C)c(S(=O)(=O)N2CCCOC2CNC(=O)C(=O)NCc2ccncc2)c(C)c1 (centres undefined)	i	-10%
CC(C)Oc1ccc(CNC(=O)Cn2nc(N3CCN(c4ccccc4)CC3)ccc2=O)cc1	-10%	-8%
c1ccc(CNc2nc(NCCc3ccncc3)c3sccc3n2)cc1	-12%	-28%
CN(C)c1ccc(NC(=O)c2sc3nc4c(cc3c2N)N2CCC4CC2)cc1	-4%	-10%
O=C(Cc1cccc(C(F)(F)F)c1)NCC(=O)Nc1cc(Cl)ccc1Cl	-18%	-19%
CC(C)Oc1ccc2ccccc2c1CNC[C@H]1O[C@@H](n2ccc(=O)[nH]c2=O)[C@H](O)[C@@H]1O	i	-7%
COc1ccc(Cc2noc(CN3CCCC(OCc4ccccn4)C3)n2)cc1OC (centres undefined)	i	-1%
CCCCN(CC)C(=O)c1cc2c(=O)n3ccccc3nc2n1C	-15%	-13%
Nc1nnc(-c2cn(-c3ccccc3)nc2-c2ccc(Cl)cc2)o1	-12%	-26%
Cc1cc(SC#N)cc(C)c1NC(=O)CCl	-15%	-9%
CCN(C(=O)CCc1nc(-c2ccc(C)cc2)no1)c1cccc(C(F)(F)F)c1	-16%	-14%
Clc1ccc(-n2ncc3c(NCC4CCCO4)ncnc32)cc1 (centres undefined)	-5%	-25%
O=C(Nc1cc(Cl)ccc1Cl)c1cc(S(=O)(=O)N2CCCc3ccccc32)ccc1F	-12%	-14%
Fc1cc(Br)ccc1NC(=S)Nc1cccnc1	i	-3%
CC(=O)N/C(=C\c1ccccc1Cl)C(=O)O	·	-10%

Quoted at random: 5 entries already listed
SMILES	Vaccinia mCherry	Vaccinia Venus
COc1cc(C2CC(=O)Oc3c2c(=O)[nH]c2ccccc32)cc(OC)c1OC (centres undefined)	-21%	-20%
CCCCN(CC)C(=O)c1cc2c(=O)n3ccccc3nc2n1C	-15%	-13%
CN(C)c1ccc(-c2cncnc2NCc2cccs2)cc1	1%	0%
CC(C)(C)OC(=O)CNC(=O)c1[nH]cnc1C(=O)N[C@@H](CCCCN)C(=O)OC(C)(C)C	-4%	-10%
O=C(COC(=O)CCCNC(=O)c1ccc(Cl)cc1)Nc1cc(Cl)c(Cl)cc1Cl	-7%	4%

Continuation.
SMILES	Vaccinia mCherry	Vaccinia Venus
Cn1c(=O)c2c(SCC(=O)Nc3ccc4c(c3)OCCO4)nc(CC(C)(C)C)nc2n(C)c1=O	7%	-6%
Fc1ccc(C(CCNCc2cccs2)c2ccco2)cc1 (centres undefined)	-15%	-11%
Cc1ccc(NC(=O)Cn2c(=O)oc3cc(S(=O)(=O)N4CCCC4)ccc32)cc1F	-19%	1%
Cc1ccc(-n2c(SCC(=O)NCc3ccccc3)nc3n[nH]c(C)c3c2=N)cc1Cl	-33%	?
Cc1ccc(CCNC(=O)CN(C)S(=O)(=O)c2cnc[nH]2)cc1	-10%	-9%
Cc1c(C(=O)N(C)C(C)C)sc2ncnc(NCCCN3CCOCC3)c12	-16%	-4%
C[C@H](NC(=O)[C@H]1N2C(=O)c3ccccc3C2SC1(C)C)C(=O)N1CCN(C)CC1 (some centres undefined)	i	-11%
Cc1nn(-c2ccc(N3CCCCC3)nn2)c(C)c1CCC(=O)Nc1ccc(F)c(F)c1	i	-18%
O=C(O)Cc1ccc2sc(-c3ccccc3)nc2c1	-3%	-22%
Cc1cc2cc(CN(Cc3cccs3)C(=S)NCc3ccco3)c(=O)[nH]c2cc1C	-28%	-19%
COc1cc(OC)c(C2C=CC(=O)CC2)c(OC)c1 (centres undefined)	-7%	-8%
Cc1cc(C(=O)Nc2nnc(C3CCCCC3)s2)cs1	-10%	2%
CC(O)(c1ccc(F)c(F)c1)c1nc(-c2cc3ccccc3o2)cs1 (centres undefined)	-11%	-23%
O=C(Nc1ccc2c(c1)OCO2)c1ccc2sc([C@@H]3O[C@H](CO)[C@@H](O)[C@H]3O)nc2c1	15%	-12%
CN1CCN(c2ccc(-c3cc(NC=O)c4ncc(-c5ccc(F)cc5)n4c3)cc2)CC1	?	-20%
Oc1cc2c(cc1CN1CCc3ccccc3C1)OCO2	?	-21%
CC(=O)N1CCCc2cc(S(=O)(=O)N(C)CC(=O)Nc3ccc(C)cc3C)ccc21	-6%	-15%
O=C(NNS(=O)(=O)c1ccc(F)cc1)C1CC(c2cccnc2)=NO1 (centres undefined)	i	3%
COc1ccc(CCN(C)CCC(=O)Nc2ccc(C)cc2)cc1OC	-20%	-12%
COc1cccc(NC(=O)c2ccccc2-c2nc(-c3cccc(C)c3)no2)c1	?	-16%
CCC(C)c1ccccc1O (centres undefined)	i	-17%
CC(=O)c1ccc(-c2cnc3c(NC=O)cc(-c4ccc(S(C)(=O)=O)cc4)cn23)cc1	-29%	?
Cc1ccc(NC(=O)C(C)N2CCOCC2)c(C(=O)c2ccccc2)c1 (centres undefined)	3%	7%
CN(CC1CCCO1)S(=O)(=O)c1ccc(C(=O)NCc2ccccc2)cc1 (centres undefined)	i	-13%
O=c1cc(CSc2ccc([N+](=O)[O-])cc2)nc2sccn12	-1%	-5%
Further records
SMILES	Vaccinia mCherry	Vaccinia Venus
COc1cccc(NC(=O)N2CCc3ccccc3C2)c1	-14%	-20%
O=C(CCN=C1NS(=O)(=O)c2ccccc21)NCc1ccccc1F	-21%	2%
COCCCNC(=S)N1CCCN(c2nc3c(C)c(C)ccc3cc2C#N)CC1	i	0%
COc1ccccc1COC(=O)C(NC(=O)c1ccc(C)cc1)C(C)C (centres undefined)	-10%	-6%
Cc1nc2c(C(=O)NCCc3ccc(Cl)cc3)cnn2c(C)c1Cc1ccc(F)cc1	-22%	-12%
COc1cc(C(=S)NC2CCCCC2)ccc1O	-12%	-17%
CCN(CC)C(=O)C1CCCN(c2ncnc3c2nc2n3CCCCC2)C1 (centres undefined)	-9%	10%
Cc1nc2sc(C)c(C)c2c(=O)o1	-25%	-10%
O=C1c2[nH]nc(-c3ccccc3O)c2C(c2cccc(O)c2)N1Cc1ccco1 (centres undefined)	·	-23%
CC(C)c1ccc(Nc2nc(Cl)nc(NCCO)n2)cc1	-2%	-9%
CCOC(=O)N1CCc2c(sc3c2c(=O)n(Cc2ccccc2)c(=O)n3CC(=O)Nc2cccc(CC)c2)C1	-17%	-9%

Source: PubChem (National Center for Advancing Translational Sciences (NCATS))
